GPR55 antagonists: GPR55 antagonists blocking LPI-driven arrestin recruitment, primary screen, imaging, U2OS, beta-arrestin-GFP, LPI agonist (AID 2013); G-protein coupled receptor 55 (Homo sapiens); U2OS GPR55 beta-arrestin-GFP translocation imaging, LPI antagonism; higher % means a stronger effect; inhibition, % at 10 µM, or IC50 in µM where a hit was titrated; 290,000 compounds, 0.13% hits;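 active means spots per cell inhibited over 60%, with over 100 cells counted and total cytoplasm intensity under 500,000; inconclusive means wells with under 100 cells, flagged as likely toxic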;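 further: U2OS cells stably carrying GPR55 and arrestin-GFP stimulated by 5 µM LPI near EC80; imaged beta-arrestin-GFP aggregate spots per cell after agonist stimulation; plate controls were LPI-stimulated DMSO wells for no effect and DMSO wells without LPI for full effect; some results filed as inactive read as strong as hits; confirmed hits need IC50 under 10 µM and bright autofluorescent wells are also inconclusive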
GPR55 activation: GPR55 agonists via beta-arrestin recruitment, primary screen, imaging, U2OS cells, beta-arrestin-GFP redistribution (AID 1961). G-protein coupled receptor 55 (Homo sapiens). U2OS GPR55 beta-arrestin-GFP redistribution imaging; higher % means a stronger effect. activation, % at 10 µM, or EC50 in µM where a hit was titrated. 290,000 compounds, 0.048% hits;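 active means activation above 40% with more than 50 cells counted in the well; inconclusive means wells holding fewer than 50 cells, flagged as toxic or sparse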;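 further: U2OS osteosarcoma cells stably expressing GPR55 and beta-arrestin-GFP; plate controls were DMSO negative control for no effect and LPI positive control for full effect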
Dengue-2 NS5 capping: Dengue-2 NS5 methyltransferase inhibitors, primary screen, biochemical, confirmation dose response (AID 588689); Genome polyprotein (Dengue virus type 2 (strain 16681-PDK53)); inhibition, % at 25 µM; hits with a dose series show IC50 in µM; Dengue-2 NS5 methyltransferase capping enzyme assay, biochemical; higher % means a stronger effect; 340,000 compounds, 0.3% hits; in the data active means a potency from the dose series; inconclusive means inhibition above about 29% without an active follow-up result
AID2073: inhibitors of Mint1-CaV2.2 protein interaction, biochemical, HTRF (AID 2073) | Voltage-dependent N-type calcium channel subunit alpha-1B (Homo sapiens) | HTRF protein-protein interaction, Mint1-CaV2.2; higher % means a stronger effect | inhibition, % at 20 µM, or IC50 in µM where a hit was titrated | 290,000 compounds, 0.19% hits; in the data active means inhibition mostly above about 51%, no sharp cut-off; inconclusive means no clear call, values can overlap the other calls; inactive means mostly below about 53%; further: some results filed as inactive read as strong as hits
GPR35 antagonists: GPR35 antagonists blocking zaprinast-driven arrestin recruitment, primary screen, imaging, U2OS, beta-arrestin-GFP, zaprinast agonist (AID 2058); G-protein coupled receptor 35 (Homo sapiens); U2OS GPR35 beta-arrestin-GFP translocation imaging, zaprinast antagonism; higher % means a stronger effect; inhibition, % at 10 µM, or IC50 in µM where a hit was titrated; 290,000 compounds, 0.052% hits;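 active means inhibition of at least 50% with at least 30 cells and total cytoplasm GFP at most 10,000,000; inconclusive means under 30 cells or total GFP of 10,000,000 plus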
An asterisk follows results filed as active; & = joins results of further samples. Only part of the results is shown; count on the stated rates, not on these rows.

Screening CCOC(=O)C1=C(COCCN)NC(C)=C(C(=O)OC)C1c1ccccc1Cl (stereo not given) returned Dengue-2 NS5 capping -2.2%&4.4%&-4.4%.
Clc1ccc2c(c1)C(N1CCNCC1)=Nc1ccccc1O2 was read as GPR55 antagonists 13.1%, GPR55 activation -0.2%, Dengue-2 NS5 capping -1.5%, AID2073 -3.9% and GPR35 antagonists -2.4%.
`COc1ccc(/C(N)=N/OC(=O)CSc2ccccc2)cc1` gave GPR55 antagonists 10.2%, GPR55 activation 0.3%, Dengue-2 NS5 capping 3.2%, AID2073 -7.9% and GPR35 antagonists -10.6%.
Screening O=c1ccc2c(-c3ccccc3)c3ccc(O)cc3oc-2c1 returned GPR55 antagonists -5.4%, GPR55 activation -0.1%, Dengue-2 NS5 capping inconclusive, AID2073 33.5% and GPR35 antagonists 9.7%.
`COc1ccc2c(c1OC)C(=O)O[C@@H]2[C@H]1c2c(cc3c(c2OC)OCO3)CCN1C` gave GPR55 antagonists -4.8%, GPR55 activation 0.2%, Dengue-2 NS5 capping -5.1%, AID2073 8.4% and GPR35 antagonists -18.4%.
For COc1ccc(OC)c(C(O)CNC(=O)CN)c1 (stereo not given) the results were Dengue-2 NS5 capping 0.0%.
`O=C1NC[C@@H](c2ccccc2)OC(=O)[C@@H](Cc2ccc(F)cc2)CC/C=C/C[C@H]1CC(=O)N(CCO)Cc1ccccc1` gave Dengue-2 NS5 capping 9.1%.
COc1cc(S(=O)(=O)n2c(C)nc3ccccc32)ccc1F was read as GPR55 antagonists 5.5%, GPR55 activation -0.2%, Dengue-2 NS5 capping -9.4%, AID2073 -5.8% and GPR35 antagonists 0.0%.
`O=C(CCCN1CCC(O)(c2ccc(Cl)cc2)CC1)c1ccc(F)cc1` gave GPR55 antagonists 7.2%&-1.7%, GPR55 activation -0.2%&-0.5%, Dengue-2 NS5 capping -1.5%, AID2073 10.5%&-2.6% and GPR35 antagonists 6.0%&-4.0%.
Screening Cc1ccc2c(CC(=O)N3CCN(S(=O)(=O)c4ccc5c(c4)OCCO5)CC3)coc2c1 returned GPR55 antagonists -6.4%, GPR55 activation -0.1%, Dengue-2 NS5 capping -4.8%, AID2073 1.6% and GPR35 antagonists -10.2%.
`COc1ccc(NS(=O)(=O)c2ccc(N)cc2)nn1` gave GPR55 antagonists 1.6%, GPR55 activation 0.1%, AID2073 8.7% and GPR35 antagonists -7.8%.
`CN1CCN2c3ccccc3Cc3ccccc3C2C1` (stereo not given) gave GPR55 antagonists 1.2%, GPR55 activation -0.1%, Dengue-2 NS5 capping -1.5%, AID2073 15.4% and GPR35 antagonists -15.9%.
`COc1cc2c(cc1OC)C1C(=O)c3cc(OS(C)(=O)=O)c(OC)cc3C1N(C)C2=O` (stereo not given) gave Dengue-2 NS5 capping -7.7%.
`CC/C(=C(/CC)c1ccc(O)cc1)c1ccc(O)cc1` gave GPR55 antagonists -5.4%, GPR55 activation 0.2%, Dengue-2 NS5 capping 3.7%, AID2073 8.4% and GPR35 antagonists -1.4%.
`CCC(CO)NCCNC(CC)CO` (stereo not given) gave GPR55 antagonists -2.9%, GPR55 activation 0.4%, Dengue-2 NS5 capping 6.6%, AID2073 -6.2% and GPR35 antagonists 17.4%.
CC1=C(C#N)c2nc(N)c(C#N)c(C)c2/C1=C\c1ccc(-c2ccccc2C(=O)O)o1 was read as GPR55 antagonists 11.4%, GPR55 activation 0.0%, Dengue-2 NS5 capping 27.2µM*, AID2073 41.8% and GPR35 antagonists -4.8%.
O=C1NC[C@H](c2ccccc2)OC(=O)[C@@H](Cc2ccc(F)cc2)CC/C=C/C[C@H]1CC(=O)N(CCO)Cc1ccccc1 was read as Dengue-2 NS5 capping 2.5%.
O=S(=O)(c1ccc2nc(SCc3cccc(Cl)c3)[nH]c2c1)N1CCOCC1 was read as GPR55 antagonists 4.9%, GPR55 activation -0.2%, Dengue-2 NS5 capping -4.3%, AID2073 -1.4% and GPR35 antagonists -18.0%.

Reprinted at random: three records from the list.
`COc1ccc(NS(=O)(=O)c2ccc(N)cc2)nn1` gave GPR55 antagonists 1.6%, GPR55 activation 0.1%, AID2073 8.7% and GPR35 antagonists -7.8%.
`O=C(CCCN1CCC(O)(c2ccc(Cl)cc2)CC1)c1ccc(F)cc1` gave GPR55 antagonists 7.2%&-1.7%, GPR55 activation -0.2%&-0.5%, Dengue-2 NS5 capping -1.5%, AID2073 10.5%&-2.6% and GPR35 antagonists 6.0%&-4.0%.
`COc1cc2c(cc1OC)C1C(=O)c3cc(OS(C)(=O)=O)c(OC)cc3C1N(C)C2=O` (stereo not given) gave Dengue-2 NS5 capping -7.7%.

A stretch taken from the entries so far, as a working copy:
Screening CCOC(=O)C1=C(COCCN)NC(C)=C(C(=O)OC)C1c1ccccc1Cl (stereo not given) returned Dengue-2 NS5 capping -2.2%&4.4%&-4.4%.
Clc1ccc2c(c1)C(N1CCNCC1)=Nc1ccccc1O2 was read as GPR55 antagonists 13.1%, GPR55 activation -0.2%, Dengue-2 NS5 capping -1.5%, AID2073 -3.9% and GPR35 antagonists -2.4%.

Screens: PubChem, several laboratories
